High-throughput results as filed in PubChem.
FGF22 binding: binders of recombinant human FGF22 by thermal shift; Q9HCT0; SYPRO orange fluorescence; percent of sucrose octasulfate shift, DMSO zero; calls only at 9.99 µM; 1.5% of 340,000 active; AID 651658;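 active means melting point raised past a set limit in the mean and every replicate; three in four hits are not shown here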
Target sequence (Q9HCT0 whole entry, looked up): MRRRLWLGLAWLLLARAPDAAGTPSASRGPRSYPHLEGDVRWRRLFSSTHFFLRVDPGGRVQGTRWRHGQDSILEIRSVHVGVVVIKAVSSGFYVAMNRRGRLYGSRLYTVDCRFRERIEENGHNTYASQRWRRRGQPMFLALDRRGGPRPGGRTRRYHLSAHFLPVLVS
LANA-H2B inh: blocks KSHV LANA binding to histone H2A/H2B | inhibition, % (no concentration beside the values) | 0.6% of 320,000 active | cell-free LANA-H2A/H2B peptide, fluorescence polarization | AID 2629 | Q9QR71; in the data active means inhibition mostly above about 10%, no sharp cut-off; inactive means mostly below about 6.7%;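 further: stock transfer was 7.5 nL into about 10 µL; 0% = median of vehicle wells and 100% = median of positive control wells; one replicate is shown; the record names a cut of 25% in any replicate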
E coli growth: inhibitors of Escherichia coli growth. OD600, 23 h; stronger effect = lower value. OD600 absorbance (test concentration not listed). 0.21% of 330,000 active. AID 1053175;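 active means OD600 absorbance below the run mean of sample wells minus 3.6 SD, in any replicate, cut at about 0.56 in these data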;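 further: stock transfer was 300 nL into about 60 µL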
UCH37 inh: inhibitors of human deubiquitinating enzyme UCH37. AID 588478. inhibition, % (test concentration not listed). 0.33% of 330,000 active. purified proteasome/UCH37, Ub-AMC cleavage fluorescence. Q9Y5K5;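 active means mean of two replicates above 20%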;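 further: 0% = compound-free wells with enzyme and 100% = wells lacking proteasome; stock transfer was 100 nL into about 20 µL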
Target sequence (Q9Y5K5 whole entry, looked up): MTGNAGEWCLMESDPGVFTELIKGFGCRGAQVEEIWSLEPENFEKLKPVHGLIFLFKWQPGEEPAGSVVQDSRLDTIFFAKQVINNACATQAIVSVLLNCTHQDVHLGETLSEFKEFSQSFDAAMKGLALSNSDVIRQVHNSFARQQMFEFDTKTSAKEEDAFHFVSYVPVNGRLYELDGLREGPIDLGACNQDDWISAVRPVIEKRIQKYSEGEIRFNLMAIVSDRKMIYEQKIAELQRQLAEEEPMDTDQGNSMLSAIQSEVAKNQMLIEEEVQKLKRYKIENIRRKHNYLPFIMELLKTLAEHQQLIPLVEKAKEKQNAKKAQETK
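Signal – fluorescence, ex 355 nm, em 460 nm · System – Proteasome-bound UCH37 · Input – 0.15 nM proteasome as dispensed · Timing – 30 min preincubation with enzyme, 25 min cleavage at room temperature · Read-out basis – percent inhibition of cleavage signal versus uninhibited and no-proteasome wells · Medium – Tris-HCl pH 7.4 with ATP-MgCl2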
HNF4A DNA FP: change in binding of human HNF4 alpha to DNA. P41235. HNF4a-FITC DNA binding, fluorescence polarization, 1 h. activity change, % at 10 µM. 0.3% of 360,000 active. AID 1224865; in the data active means activity change above about 30%, passing the limit was not always enough;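 further: controls were the assay level and a saturating level of protein; the project sought stronger binding though the title names inhibitors; some compounds called inactive have numbers as strong as hits; positive values seem to mean higher polarization but the record does not say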
Target sequence (P41235 whole entry, looked up): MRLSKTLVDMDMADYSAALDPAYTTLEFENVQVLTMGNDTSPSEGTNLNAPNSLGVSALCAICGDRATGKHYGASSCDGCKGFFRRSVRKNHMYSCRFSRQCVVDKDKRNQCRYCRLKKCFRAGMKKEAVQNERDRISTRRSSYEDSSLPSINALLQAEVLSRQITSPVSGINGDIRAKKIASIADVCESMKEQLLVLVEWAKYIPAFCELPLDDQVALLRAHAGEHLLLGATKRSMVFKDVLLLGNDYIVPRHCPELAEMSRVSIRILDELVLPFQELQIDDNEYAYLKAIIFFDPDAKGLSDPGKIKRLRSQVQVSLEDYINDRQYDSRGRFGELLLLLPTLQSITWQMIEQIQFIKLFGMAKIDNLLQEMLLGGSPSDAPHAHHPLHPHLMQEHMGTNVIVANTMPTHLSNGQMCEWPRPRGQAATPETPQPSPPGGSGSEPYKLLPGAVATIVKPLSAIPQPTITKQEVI
ALR H2O2 inh: human ALR oxidase inhibition via reduced H2O2; purified ALR, DTT oxidation, H2O2 HRP-luminol luminescence; inhibition, % (concentration not given with the values); 3.8% of 290,000 active;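 active means mean and each replicate at 75% or more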;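 further: stock transfer was 7.5 nL into about 7.5 µL; 0% = neutral wells and 100% = wells with inactivated enzyme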
Beta2AR agonist: human beta-2 adrenergic receptor agonism by FAP; response, % (test concentration not listed); 0.43% of 340,000 active; AID 504454; Am2.2-beta2AR cells, FAP receptor internalization, flow cytometry; reference of the scale not given here;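 active means response above a set limit, near 3 SD of response in nonfluorescent compounds, cut at about 42% in these data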;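 further: stock transfer was 100 nL into about 11 µL; a reference agonist was the positive control; negative values mostly stem from fluorescent compounds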
The depositor's hits bear a star; i = inactive; . = not tested or not shown.

Order of results: FGF22 binding, LANA-H2B inh, E coli growth, UCH37 inh, HNF4A DNA FP, ALR H2O2 inh, Beta2AR agonist
1: CC(NC(=O)CN(C)CC(=O)Nc1cccc(F)c1)c1ccccc1 (centres undefined)
    i, -0.7, 0.715, -0.6, 6.1, 8.1, 7.0
2: Cc1ccc(CNS(=O)(=O)c2c(C)[nH]c(=O)[nH]c2=O)cc1
    i, 0.5, 0.666, -2.4, 3.9, -3.9, -3.6
3: O=C1c2ccccc2S(=O)(=O)N1CC1CC(c2ccc(Cl)cc2)=NO1 (centres undefined)
    ., 0.1, 0.67, 1.8, 3.3, -2.4, -4.7
4: O=C(CSc1n[nH]c(=O)n1C1CC1)Nc1ccccc1
    i, 3.5, 0.688, 5.7, 0.0, -2.1, -6.0
5: CSc1ccc(CN(C)CC(=O)NC(=O)NCCC2=CCCCC2)cc1
    i, -7.4, 0.645, -0.5, -0.2, ., -8.3
6: O=C(NCCO[N+](=O)[O-])c1cccnc1
    i, -6.3, 0.713, 1.6, 3.4, -6.2, -1.2
7: CN(C)c1ccc(NC2=C(Cl)C(=O)c3ccccc3C2=O)cc1
    i, 4.7, 0.708, 13.3, -2.0, 72.6, 18.6
8: O=C(Nc1cc(S(=O)(=O)N2CCOCC2)ccc1-n1cncn1)c1ccc(Cl)cc1
    i, 0.3, 0.715, 7.4, 0.7, ., 2.3
9: COc1ccc(NC(=O)c2c(Nc3ccccc3)sc(C(=O)c3ccc(F)cc3)c2N)cc1
    ., 8.9, 0.746, -126.3, 0.2, 24.7, 19.7
10: O=C(CCN1CCN(c2ccc(Cl)cc2)CC1)Nc1ccccc1F
    ., -0.8, 0.74, 1.4, -1.4, 87.6*, 0.0
11: COc1cc(-c2nc3cnccn3c2Nc2c(C)cccc2C)ccc1O
    ., -3.6, 0.626, -74.8, 9.6, 98.4*, 14.9
12: Cc1ccc(-c2nnc(SCC(=O)N3CC(C)CC(C)C3)o2)cc1C (centres undefined)
    i, -6.1, 0.747, 2.2, 2.5, -12.4, -0.3
13: COc1cccc(NC(=O)CN(C)C(=O)c2ccccc2OCc2c(C)noc2C)c1
    i, -0.7, 0.587, -0.7, 2.7, -1.5, -2.6
14: CSc1nsc(SCC(=O)Nc2ccccc2F)n1
    i, 1.7, 0.674, 1.1, 5.6, 58.6, 1.8
15: CCN1CCN(CCNC(=O)c2cn(Cc3ccccc3F)nn2)CC1
    ., -3.2, 0.735, 1.8, -1.6, ., 0.3
16: O=S(=O)(Nc1nc2ccccc2nc1Cl)c1ccccc1
    i, 0.8, 0.704, -2.3, 2.0, -1.7, 0.5
17: CC(C)c1ccc(-c2nnn(Cc3nc4ccccc4s3)n2)cc1
    ., -0.1, 0.652, 2.0, 0.2, -1.1, 9.9
18: COc1ccc(N2CCN(C(=O)[C@H](Cc3c[nH]c4ccccc34)NC(C)=O)CC2)cc1
    ., -3.5, 0.719, 0.6, 4.5, 98.3*, -5.2
19: CC(C)(C)OC(=O)NCc1ccc(CNC(=O)c2nc[nH]c2C(=O)NCc2ccc(CNC(=O)OC(C)(C)C)cc2)cc1
    i, 2.2, 0.713, 0.3, 1.1, 33.4, 10.5
20: Cn1c(C(=O)O)cc2c(=O)n3ccccc3nc21
    ., -4.9, 0.638, i, -4.0, -0.6, 7.3
21: CN(CCCCOc1ccc(F)cc1)Cc1ccccc1
    i, 7.0, 0.719, 2.8, 3.1, ., 0.1
22: O=C(O)CCC(=O)N1CCc2cc(S(=O)(=O)NCc3cccs3)ccc21
    ., -3.3, 0.695, 1.6, 2.6, -11.7, 3.0
23: CC1CCCN(Cc2nc3c(c(=O)n(C)c(=O)n3C)n2CCc2ccccc2)C1 (centres undefined)
    ., -6.7, 0.68, -0.8, -0.2, -12.4, 2.3
24: COCCNS(=O)(=O)c1ccccc1
    i, -4.2, 0.695, 0.3, 1.2, -5.4, -2.7
25: Cc1occc1C(=O)N1N=C(C2CC2)CC1(O)C(F)(F)F (centres undefined)
    ., -3.8, 0.657, 4.3, 1.4, -4.4, 6.5
26: COC(=O)C(CC(=O)CNC(=O)c1ccccc1)NC(=O)c1ccccc1 (centres undefined)
    i, ., 0.719, 1.1, 4.1, ., 3.5
27: CCOC(=O)C(=CNc1ccc(N2CCCCC2)c(S(=O)(=O)Nc2ccccc2OC)c1)C(=O)OCC
    i, ., 0.678, -63.8, -2.6, ., 2.3
28: COCCCn1c(SCC(=O)N2CCOCC2)nc2ccccc2c1=O
    i, 0.6, 0.659, 5.2, 0.1, ., -7.0
29: COc1ccc(S(=O)(=O)NC2CC(=O)N(c3ccc4c(c3)OCCO4)C2)cc1 (centres undefined)
    i, -1.2, 0.645, 4.9, 4.1, ., -0.8
30: CS(=O)(=O)C1=NN2C(=N)/C(=C\c3ccc(OC(=O)c4ccco4)cc3)C(=O)N=C2S1
    i, -1.4, 0.669, 2.1, -0.5, 11.7, 9.1
31: O=C(C[n+]1ccc(C(=O)N/N=C/c2ccc(O)cc2)cc1)c1ccccc1
    ., 4.4, ., ., 6.6, ., -0.2
32: O=C(CN1CCN(C(c2ccccc2)c2ccccc2)CC1)N1N=CCC1c1ccccc1 (centres undefined)
    i, -3.8, 0.659, 1.3, 0.7, ., -3.0
33: COc1cccc(N(CC(=O)N2CCN(C)CC2)S(=O)(=O)c2ccccc2)c1
    i, 0.9, 0.676, -0.2, 2.8, -25.3, -3.0
34: CC(C)CCNC(=O)C(c1ccc(O)cc1)N(Cc1cccs1)C(=O)C1COc2ccccc2O1 (centres undefined)
    i, -2.0, 0.694, 0.3, 1.8, -3.5, 10.4
35: O=C1Nc2ccccc2C1C(C[N+](=O)[O-])c1ccccc1 (centres undefined)
    i, 0.8, 0.699, 1.7, 1.8, 5.0, -6.9
36: COc1cccc(CNC(=S)Nc2ccc(Cl)cc2C)c1
    i, 3.9, 0.622, -1.4, -3.0, -1.2, -6.5
37: CCCOC(=O)c1ccc(NC(=O)c2ccccc2OC)cc1
    i, -2.0, 0.686, 5.9, 0.3, -9.8, 3.3
38: CC(C)[C@H](NC(=O)N1CC(=O)Nc2ccccc21)C(=O)Nc1nccs1
    i, 7.0, 0.638, -4.2, 0.1, 90.6*, 2.3
39: Cc1c(C(=O)N2CCCCC2)nn(-c2ccc(Cl)cc2)c(=O)c1C#N
    ., -2.8, 0.679, -8.0, -2.4, ., -5.3
40: O=C(NCCc1c[nH]c2ccccc12)c1cc2ccccc2oc1=O
    i, 6.9, 0.671, 6.3, -0.2, 2.1, -5.8
41: COc1cccc(NC(=O)CN(C)C(=O)c2ccc(S(=O)(=O)Nc3ccccc3C)cc2)c1
    i, -2.0, 0.663, -0.2, 3.7, 0.0, 10.2
42: Cc1cc2cccc(C)c2nc1SCC(=O)NC1CCCCC1
    i, 0.1, 0.662, 1.4, -0.5, -0.7, 9.6
43: Cc1ccc(C(=O)N2CCCC2)c(F)c1F
    ., -5.1, 0.729, 0.1, 3.0, 1.5, -0.7
44: CCO[C@@H]1OC(C(=O)N2CCN(C)CC2)=C[C@H](c2coc3ccccc3c2=O)[C@H]1CCCO
    i, -0.7, ., 1.7, 0.7, 2.2, -8.8
45: CCN1C(=O)C(C)S/C1=N\S(=O)(=O)c1ccc(Cl)s1 (centres undefined)
    ., 3.2, ., ., -1.7, 0.4, -0.8
46: Cc1ccc(/C=C/C(=O)Nc2ccc(S(N)(=O)=O)cc2)o1
    i, -4.5, 0.691, 4.2, -1.7, 47.6, 5.1
47: CCCCC(=O)NC(N1CCCCC1)C(Cl)(Cl)Cl (centres undefined)
    ., -1.5, 0.808, 1.7, -1.7, 0.5, 0.2
48: CC(=O)Nc1ccc(NC(=O)C(C)OC(=O)c2ccccc2Sc2ccccc2C#N)cc1 (centres undefined)
    i, -1.3, 0.685, 1.8, -2.6, 1.2, 7.4
49: Cc1cccc2cc(CN(CC3CCCO3)C(c3nnnn3Cc3ccco3)C(C)C)c(=O)[nH]c12 (centres undefined)
    ., -7.4, 0.697, 3.6, 0.1, -2.1, 6.9
50: O=C1C2CC=CCC2C(=O)N1c1ccc(Cc2ccncc2)cc1 (centres undefined)
    ., 0.8, 0.694, 1.8, 4.6, -3.2, -4.1
51: O=C(Nc1cccc2nsnc12)c1cccnc1Cl
    i, -3.5, 0.712, -13.0, 5.2, -4.2, -3.9
52: Cc1ccc(Nc2cc(C)nc3ccccc23)c(C)c1
    i, 1.1, 0.627, 5.8, -2.8, -27.1, 6.8
53: O=C(CN1C(=O)c2ccc([N+](=O)[O-])cc2C1=O)Nc1nnc(C2CC2)s1
    i, 2.4, ., ., 0.4, -1.7, 1.5
54: Fc1ccccc1-c1csc(=Nc2cccnc2)n1CCCn1ccnc1
    i, 0.8, 0.719, 4.6, 3.4, 1.6, .
55: CCOC(=O)CSC1=C(C#N)C(c2ccco2)C(C(=O)Nc2cccc(C(F)(F)F)c2)=C(C)N1 (centres undefined)
    ., -2.3, 0.679, -7.4, 6.1, 1.3, -0.9
56: CC1(c2ccc(OC(F)F)cc2)NC(=O)N(CC(=O)NCCC2=CCCCC2)C1=O (centres undefined)
    i, 3.6, 0.68, 5.1, 2.4, -0.9, -1.0
57: CCCNC(=O)CCn1cc(-c2ccc(OC)cc2)nc1-c1ccncc1
    i, -4.2, 0.694, -6.3, -3.2, 2.2, -4.6
58: CC(=O)Nc1ccc(NC(=O)c2cc(C3CC3)nc3c2cnn3C(C)C)cc1
    i, ., 0.704, 1.1, 0.5, ., 6.6
59: CCOc1ccc(C(CCc2ccccc2)NC(=O)c2ccccc2F)cc1OCC (centres undefined)
    i, -8.2, 0.735, 3.3, -3.8, -7.7, 3.9
60: c1ccc(-c2noc(CCC3CCCC3)n2)cc1
    i, -1.5, 0.718, 4.1, 0.2, 0.3, -4.2

Continuation:
Order of results: FGF22 binding, LANA-H2B inh, E coli growth, UCH37 inh, HNF4A DNA FP, ALR H2O2 inh, Beta2AR agonist
61: CC1(C)CC(=O)N(c2cc(Cl)cc(Cl)c2)C(=O)C1
    i, 0.0, 0.702, 3.9, 2.2, -5.1, 5.9
62: COc1ccc(N/C=C/C(=O)c2ccc(C)cc2)c([N+](=O)[O-])c1
    ., -4.2, ., ., -7.2, -0.2, -0.2
63: CC[C@H](NC(=O)c1c(C)c(-c2ccccc2)nc2ccccc12)c1ccccc1
    i, -9.5, ., 2.5, -3.5, -0.8, 0.8
64: CC(=O)c1ccc(OCC(=O)NC(=O)NC2CCCCC2)cc1
    i, 7.3, 0.677, 1.8, 1.9, -3.1, 0.3
65: CCC(=O)Nc1cc(C(=O)OCC(=O)c2ccccc2)ccc1C
    ., 0.8, ., 2.0, 0.2, -4.4, 1.6
66: O=C(CSc1nc2ccccc2c(=O)[nH]1)NCc1ccc(Cl)cc1
    ., 1.3, 0.793, 1.1, 3.0, 1.7, 0.4
67: CC1(C(=O)N2CCC(CO)(Cc3cccc(C(F)(F)F)c3)CC2)CC1
    i, -4.9, 0.668, 4.1, 1.0, -1.4, 3.7
68: CCn1cc([N+](=O)[O-])c(C(=O)N2CCCCCC2)n1
    i, 0.2, 0.731, 3.1, -1.2, -2.1, 4.8
69: Cc1ccc2c(c1)N(CC(=O)NCCCN1CCOCC1)C(=O)C(C(C)C)O2 (centres undefined)
    i, ., 0.643, 2.3, -3.4, ., -2.0

The list is partial. The share of hits here may be higher or lower than overall.
